BasE inh: inhibitors of Acinetobacter baumannii siderophore enzyme BasE | AID 485350 | inhibition, % (no concentration beside the values) | purified BasE, fluorescence polarization binding displacement | actives 0.1% (n = 84,000);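 active = both replicates above 25% with normal brightness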;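 note: 0% = negative plate control signal and 100% = positive plate control signal; stock transfer was 100 nL into about 30 µL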
KSHV LANA nucl: LANA-nucleosome interaction inhibition; actives 0.3% (n = 51,000); z-score (concentration not given with the values); FITC-LANA1-23 / chicken nucleosome fluorescence polarization; stronger effect = lower value;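 active = both repeat wells score below -2 in polarization z-score versus plate sample wells, excluding overly bright wells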;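 note: 100 nL library stock added to about 30 µL; numbers are from one replicate; some results filed as inactive read as strong as hits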
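Assay system: FITC-LANA peptide and chicken nucleosomes; input: 240 nM purified chicken nucleosomes (480 nM peptide binding sites), final; also added: 50 nM FITC-LANA1-23 probe; medium: TEN-BT buffer, pH 7.5; doses: pin-transferred compound, 100 nL; times: 10–45 min, room temperature; technique: fluorescence polarization; replication: duplicates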
* marks the source's active call; other numbers are inactive results; nt = not tested or not shown. Some of the compounds tested. The share of hits here may be higher or lower than overall.

Compound	BasE inh	KSHV LANA nucl
CC(C#N)(NC(=O)CSc1ncccn1)C1CC1 (configuration not stated)	0.9	nt
CC1(C)CC(=O)C(C=Nc2ccc(S(N)(=O)=O)cc2)=C(O)C1	1.5	0.43
Cc1cc(C)c(S(=O)(=O)Cc2ccccc2)c(Cl)n1	nt	0.29
CCOc1ccc(-c2nc(C#N)c(N3CCCC3)o2)cc1	1.6	0.38
O=C(NN1CCOCC1)c1ccc(Cl)cc1	1.2	-1.6
CC1=C(C(N)=O)C(c2ccco2)C(C#N)=C(SCC(=O)N2CCc3ccccc3C2)N1 (configuration not stated)	1.1	nt
Cc1ccc(-c2nnc(SCC(=O)C(C)(C)C)n2N)cc1	-1.0	nt
O=C(CC1SC(=NC2CCCCC2)NC1=O)Nc1ccccc1 (configuration not stated)	-0.8	-0.43
CC(C)Cn1c(-c2ccccc2)c[nH]c1=S	-0.4	nt
Cc1ccc(-c2cnnn2-c2ccc(-c3csc(C)n3)cc2)cc1	-1.9	nt
Cc1ccc(C)n1-c1ccc(C(=O)OCc2nc3ccsc3c(=O)[nH]2)cc1	0.4	nt
CC(Sc1ccccc1)C(=O)NCCc1ccccc1 (configuration not stated)	2.8	-0.35
CCCN(CCC)CCCn1cnc2c([nH]c3ccc(Cl)cc32)c1=O	-4.0	-0.4
NC(=O)c1csc(-c2cccnc2)n1	0.5	nt
COc1ccc(CNC(=O)c2noc(C)c2CN2CCOCC2)cc1	-0.4	-0.28
CCCCN(C(=O)c1cc(OC)c(OC)c(OC)c1)C1=CC2CCC(C1)N2C (configuration not stated)	-2.7	2
CCOC(=O)/C=C1\SCC(=O)N1CC(=O)NC1CCCc2ccccc21 (configuration not stated)	0.5	nt
COc1ccc(Cl)cc1NC(=O)c1oc2ccc(S(=O)(=O)N3CCC4(CC3)OCCO4)cc2c1C	1.8	-1.1
CC1=C/C(=N\Nc2ncc(Cl)cc2Cl)CC(C)(C)C1	-1.8	nt
Cc1nn(Cc2ccc(F)cc2)c2sc(C(=O)Nc3ccc(S(=O)(=O)N4CCCC4)cc3)cc12	2.0	nt
c1ccc(-c2nccnn2)cc1	1.5	-0.94
O=C(Cn1[nH]c(=O)c2ccccc2c1=O)OCC(=O)N1CCCc2ccccc21	-0.9	nt
COc1cccc(C(CC(=O)Nc2sc3c(c2C#N)CCCC3)NC(=O)c2ccccc2)c1 (configuration not stated)	2.2	nt
CCC(=O)Nc1cc(C(C)C)c(O)cc1C	-3.1	-0.14
CCOC(=O)C1=C(C)NC(C)=C(C(=O)OCC)C1C(=O)OCC(=O)N1CCc2ccccc2C1	2.1	nt

7 compounds out of the list above, ordered by their value in KSHV LANA nucl, descending.
SMILES,KSHV LANA nucl
CCCCN(C(=O)c1cc(OC)c(OC)c(OC)c1)C1=CC2CCC(C1)N2C (configuration not stated),2
CCOc1ccc(-c2nc(C#N)c(N3CCCC3)o2)cc1,0.38
Cc1cc(C)c(S(=O)(=O)Cc2ccccc2)c(Cl)n1,0.29
COc1ccc(CNC(=O)c2noc(C)c2CN2CCOCC2)cc1,-0.28
O=C(CC1SC(=NC2CCCCC2)NC1=O)Nc1ccccc1 (configuration not stated),-0.43
c1ccc(-c2nccnn2)cc1,-0.94
O=C(NN1CCOCC1)c1ccc(Cl)cc1,-1.6

(cont.)
Compound	BasE inh	KSHV LANA nucl
COc1cc2c(cc1OC)C(NN)=NC(C)(C)C2	1.6	nt
COC(=O)C1=C(C)N(CC2CCCO2)C(=O)/C1=C\c1ccccc1 (configuration not stated)	0.3	-1.4
O=C(O)COc1ccccc1/C=C1/C(=O)Nc2cc(Cl)ccc21	1.5	nt
CC1CN(Cc2ccccc2Cl)CC(C)O1 (configuration not stated)	3.3	-0.31
Cn1c(CSc2nc3ccccc3s2)nnc1SCC(=O)NCCCN1CCOCC1	-1.4	-0.64
C=CCC1C=CCC(CC=C)N1C(C)=O (configuration not stated)	3.5	nt
CCN(CC(=O)Nc1ccc2c(c1)OCCO2)c1ccc(S(=O)(=O)N2CCOCC2)cn1	0.0	nt
COc1cc(C2C(C#N)=C(N)Oc3nc[nH]c(=O)c32)ccc1OCC(N)=O (configuration not stated)	1.8	0.18
CCc1cc(=O)[nH]c(SCc2ccc(F)cc2)n1	nt	-0.6
CC1CCCCN1C(=O)COC(=O)Cc1c[nH]c2ccccc12 (configuration not stated)	-1.6	nt
COc1ccc(Cl)cc1NC(=O)CN1C(=O)CSC(C)C1=O (configuration not stated)	0.3	-0.51
CCN(CC)c1ccc(NC(=O)c2ccc(C)cc2)c(N(CC)CC)n1	1.1	-1.2
O=C(OCc1cc(=O)n2c3c(sc2n1)CCCC3)C1CCCN1S(=O)(=O)c1ccccc1F (configuration not stated)	-1.1	nt
CCOc1ccc(S(=O)(=O)N(CC(=O)N2CCC(C)CC2)c2ccccc2)cc1	-1.4	nt
O=C(O)C1CCN(C(=O)/C=C/c2ccccc2)CC1	1.4	nt
O=S1(=O)CCN(Cc2cc3ccccc3s2)CC1	nt	-0.94
Cc1ccc(OCCOCCN2CCCCC2)c(C)c1	-0.9	-0.42
CCOc1ccc(OCCN2CCN(C)CC2)cc1	0.8	-1.1
CN(CC(=O)Nc1sc2c(c1C(=O)c1cccs1)CCCC2)C1CCCCC1	-0.8	2.8
CCCN1CC=C2C(C#N)=C(N)C(C#N)(C#N)C(c3ccc(OCC(N)=O)cc3)C2C1 (configuration not stated)	5.7	-1.3
CSc1ccccc1NC(=O)Cc1ccccc1	-1.4	0.013
Cc1cc2occ(CC(=O)Oc3ccc(-c4nnco4)cc3)c2cc1C(C)C	1.9	nt
C=C1c2ccccc2N=C(SCC(=O)Nc2cccnc2Cl)N1C	1.5	nt
CCOc1ccccc1NC(=O)c1cccc(NC(=O)c2ccco2)c1	-2.8	-0.34
CC(=O)NC12CC3CC(C1)CC(C(=O)N1CCN(Cc4ccccc4)CC1)(C3)C2	2.3	nt
CSc1nnc2c(n1)OC(C)Nc1ccccc1-2 (configuration not stated)	8.7	nt
CN1C(=O)c2ccccc2N(C)C1c1ccc(F)cc1 (configuration not stated)	0.2	-0.19
COCCN1C(=O)/C(=C/c2cn(CC(=O)OC)c3ccccc23)C(=O)N(c2ccccc2)C1=O	0.6	nt
O=C(CN1C(=O)C(c2ccccc2)=NC12CCCC2)Nc1ccc(Cl)cc1	1.0	-0.4
O=C(CCC(=O)N1CCOc2ccccc21)N1CCOCC1	-0.9	0.011
O=C(NCCc1ccccc1)C1CC(=O)N2CCN=C2S1 (configuration not stated)	0.9	0.014
CC1(C)CC(=O)C(C=NCCO)=C(O)C1	0.9	-0.018
Cc1csc(NN=C2CCCCC2)n1	1.4	0.3
Cc1cc(CCN)c(C)n1-c1ccccc1	0.4	nt
C=CCn1c(SCC(=O)c2ccccc2)nnc1-c1sc2nc(C)cc(C)c2c1N	-2.3	nt
CCn1nccc1NC(=O)c1ccc(Cl)c(S(=O)(=O)N(C)c2ccccc2)c1	3.5	nt
CCCn1c(=O)ccn(-c2ccccc2C)c1=O	0.6	nt
CCOC(=O)N1CCN(S(=O)(=O)c2cc3[nH]c4c(c3cc2CC)C(=O)CC(C)(C)C4)CC1	2.6	-0.63
Cc1cccc(N2C(=O)NC(=O)/C(=C\c3cn(CC(=O)NCc4ccco4)c4ccccc34)C2=O)c1	31	-0.73
Nc1nnc(SCc2cccc(S(=O)(=O)N3CCOCC3)c2)s1	2.0	nt
CS(=O)(=O)N1CCc2cc(C(=O)Cn3cc(C(F)(F)F)ccc3=O)ccc21	-0.7	nt
COc1ccc(/C=N/Nc2nc(-c3ccc(OC)cc3)c(C)s2)cc1	1.6	0.36
O=C1ON=C(c2ccccc2)/C1=C/c1ccco1	0.3	nt
COc1ccc(-n2c(SCC(N)=O)nc3c(c2=O)SCC3)cc1	0.4	0.34
OC1CCC(NCC(O)COCc2ccccc2Cl)CC1 (configuration not stated)	1.1	nt
O=C(C1CC(c2ccccc2O)=NO1)N1CCCC1 (configuration not stated)	0.3	-0.75
COc1cccc(C(C(F)(F)F)P(C)(=O)O)c1 (configuration not stated)	-1.7	nt
CN(CC(=O)Nc1ccc2c(c1)CCC2)C1CCS(=O)(=O)C1 (configuration not stated)	0.2	nt
CC1CCCCN1C(=O)CSc1nc(-c2ccc(F)cc2)cc(C(F)(F)F)n1 (configuration not stated)	1.4	-0.96
O=C(O)c1cccc(-c2ccc(/C=c3/sc4nc5ccccc5n4c3=O)o2)c1	1.0	nt

Next entries follow:
Compound	BasE inh	KSHV LANA nucl
O=C(Cc1ccccc1)N1CCCCCC1	-1.4	0.54
CC(C)(C)c1ccc(C(=O)Nc2ccc(NC(=O)c3ccc(Br)o3)cc2)cc1	4.3	-0.38
O=C(Cn1[nH]c(=O)c2ccccc2c1=O)NCCN1C(=O)S/C(=C\c2ccccc2)C1=O	2.4	nt
S=C(NCCNc1ccccn1)NC1CC1	4.3	nt
C(=C\c1cccs1)/C1=NN(c2ccccc2)C(c2cccs2)C1 (configuration not stated)	-11	-0.18
Cc1ccc(N(CC(=O)N2CCOCC2)S(=O)(=O)c2ccccc2)cc1	-0.7	-0.39
O=C1/C(=C/c2cccs2)CN(Cc2ccccc2)C/C1=C\c1cccs1	0.1	-0.067
CC(O)CNCCOc1ccc2ccccc2c1Cl (configuration not stated)	-5.5	1.8
Cc1noc(C)c1COc1cc2ccccc2cc1C(=O)NCc1ccccn1	2.4	nt
CCN(CC)Cn1c(=S)oc2ccc(Cl)cc21	-0.8	nt
CCN(C(=O)CSc1nc2ccccc2o1)C1=CCCC1	3.0	nt
O=S(=O)(CCc1nc2ccccc2s1)c1ccc(Cl)cc1	1.6	0.58
COc1ccccc1N1CCN(C(CNS(=O)(=O)c2c(C)cc(C)cc2C)c2cccnc2)CC1 (configuration not stated)	-0.7	0.52
CCCCNCc1cccn1-c1sc2c(c1C#N)CCCC2	-1.9	0.18
Cc1ccc2cc(CN(CC3CCCO3)C(=O)C(F)(F)F)c3nnnn3c2c1C (configuration not stated)	0.8	-0.12
CN1C(N)=NC(=O)C1(CO)CO	2.1	-0.17
Cc1cc(=O)[nH]c2nnc(SCC(=O)N3CC(C)OC(C)C3)n12 (configuration not stated)	-0.7	0.073
N#CC(C#N)=C1C=C(c2cccs2)Oc2ccccc21	36	nt
Cc1ccc(CC(C#N)Sc2nnc(-c3ccc(F)cc3)n2CC2CCCO2)cc1 (configuration not stated)	-0.6	nt
CC(NC=C1C(=O)OC(C)(C)OC1=O)C(=O)O (configuration not stated)	2.1	nt
CC(SCc1ccccc1)C(=O)NCc1ccccn1 (configuration not stated)	1.0	-0.16
O=C(COC(=O)CSc1nc2ccccc2o1)NC1CC1	2.5	nt
CC1CCN(S(=O)(=O)c2ccccc2)CC1	0.0	-1.4
CCN(CC)S(=O)(=O)c1ccc2nnn(OCC(=O)NCc3ccccc3OC)c2c1	0.7	nt
Cc1onc(-c2c(F)cccc2Cl)c1C(=O)N1CC(Oc2ccc(Cl)cc2)C1	-0.3	nt
FC(F)(F)c1ccc(CSc2nccc(-c3cccnc3)n2)cc1	2.8	nt
O=C1CCCc2oc(=O)ccc21	2.5	nt
O=C(O)CC1(CC(=O)N2CCN(c3ccccc3)CC2)CCCC1	0.2	nt
CCOC(=O)c1cc(NC(=O)C2C3C=CC(O3)C2C(=O)O)cc(C(=O)OCC)c1 (configuration not stated)	3.0	nt
COC(=O)Cc1[nH]n(-c2ccc(OC)cc2)c(=O)c1C(C)=NC(C)(C)C	-0.1	0.6
CCOC(=O)C(C#N)=C1C=CN(c2ccccc2)C=C1	2.8	0.47
Clc1cc(CNCc2ccccc2CN2CCOCC2)cc2c1OCCCO2	-5.5	nt
COc1ccc(S(=O)(=O)N2CCc3ccccc32)cc1C(=O)NC(C)(C)C	-1.0	nt
O=C(ON=C1CCC2(CC1)OCCO2)c1cccc(C(F)(F)F)c1	5.0	-0.071
CC(C)=CC1C(C(=O)Nc2ccc(Cl)cn2)C1(C)C (configuration not stated)	0.5	0.61

In the list so far, these contain a CF3 group:
Compound	BasE inh	KSHV LANA nucl
CS(=O)(=O)N1CCc2cc(C(=O)Cn3cc(C(F)(F)F)ccc3=O)ccc21	-0.7	nt
COc1cccc(C(C(F)(F)F)P(C)(=O)O)c1 (configuration not stated)	-1.7	nt
CC1CCCCN1C(=O)CSc1nc(-c2ccc(F)cc2)cc(C(F)(F)F)n1 (configuration not stated)	1.4	-0.96
Cc1ccc2cc(CN(CC3CCCO3)C(=O)C(F)(F)F)c3nnnn3c2c1C (configuration not stated)	0.8	-0.12
FC(F)(F)c1ccc(CSc2nccc(-c3cccnc3)n2)cc1	2.8	nt
O=C(ON=C1CCC2(CC1)OCCO2)c1cccc(C(F)(F)F)c1	5.0	-0.071

Compound activity (PubChem)
